# Source: PubChem (Center for Chemical Genomics, University of Michigan)
# TAR Tat displ = HIV-1 TAR-Tat binding disruption; AID 1259389; 100,000 tested, 0.6% active; z-score (concentration not given with the values); HIV-1 TAR RNA, Tat peptide displacement FRET; stronger effect = higher value;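 note: score is relative to mean and SD of negative controls; some compounds called inactive have numbers as strong as hits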
# CDC25B CDK2 inh = human CDC25B-CDK2/CyclinA binding inhibition | HTRF CDC25B-CDK2/CyclinA binding, anti-His/anti-Flag; stronger effect = higher value | z-score (concentration not given with the values) | 94,000 tested, 0.72% active;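 note: score is relative to mean and SD of negative controls; strong numbers were not always called active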
# The depositor's hits bear a star; x = no result given.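 Rule for the calls: active = z-score from 3 up in half or more of its runs; inactive = the rest.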
SMILES,TAR Tat displ,CDC25B CDK2 inh
CSCCC(NS(=O)(=O)c1cccs1)C(=O)N1CCN(c2ccccc2F)CC1 (stereo not drawn),x,-1.6
COc1ccc(C2CC(=O)C3=C(C2)Nc2ccccc2NC3c2ccc(OC)c(OC)c2)cc1 (stereo not drawn),-0.16,-2.7
CCOc1cccc2c1N(C(C)=O)C(C)(C)C(=S)C2=C1SC(C(=O)OC)=C(C(=O)OC)S1,0.69,-0.44
COc1ccc(C2CCCN2S(=O)(=O)c2cnc[nH]2)cc1 (stereo not drawn),0.51,-2.6
O=C(Nc1ccc(F)c(F)c1)C1CCN(S(=O)(=O)c2cnc[nH]2)CC1,2.2,-1.6
Cn1c(=O)c2c(nc(N3CCN(CCO)CC3)n2CCCc2ccccc2)n(C)c1=O,2.1,-0.9
COC(=O)c1cc(-c2ccc(F)cc2)no1,-1.2,0
O=C(CSc1cn[nH]c(=O)n1)N(Cc1ccccc1)Cc1ccccc1,0.35,0.43
Cc1ccc(C)c(S(=O)(=O)c2cn(C)c3cc(N4CCCC4)c(F)cc3c2=O)c1,-0.36,x
Cc1cc(-c2ccc(C)c(S(=O)(=O)N3CCOCC3)c2)on1,0.51,x
CCCOc1cccc(C2c3c(oc4ccccc4c3=O)C(=O)N2c2nnc(C)s2)c1 (stereo not drawn),1.6,-0.16
CN1C(=O)c2cc(C(=O)NCCCN3CCCC3=O)nn2CC1(C)C(=O)NC1CCCCC1 (stereo not drawn),1.9,x
CCc1ccc2ncc(S(=O)(=O)c3ccc(Cl)cc3)c(N3CCOCC3)c2c1,-1.2,2.8
Clc1ccc(CN2CCc3nc(N4CCCC4)ncc3C2)cc1,0.42,x
Cc1ccccc1-c1noc(-c2nnn(-c3ccccc3F)c2C)n1,0.13,x
Cc1cc(=O)n2nc(-c3cccs3)nc2n1CC(=O)NC(C)C,0.83,0.13
O=C(Cn1c(=O)oc2cc(S(=O)(=O)N3CCCC3)ccc21)Nc1cccc(F)c1,x,7.5
Clc1ccc(-c2nnc(NCCN3CCOCC3)c3ccccc23)cc1,1.3,-0.95
CN1C(C(=O)N2CCOCC2)=CC(c2cccs2)=NS1(=O)=O,1.2,-1.3
COc1ccc(CN(C(=O)c2cc(-c3ccc4c(c3)OCCO4)on2)C2CCS(=O)(=O)C2)cc1 (stereo not drawn),1.4,-0.55
O=C(c1cc2sc3ccccc3c2s1)N1CCCCCC1,x,-1.1
CCOc1ccc2c(c1)C(C)=CC(C)(C)N2C(=O)Nc1ccc(F)cc1,1.2,-1.5
CSc1ncc(Cl)c(C(=O)Nc2ccc(S(=O)(=O)N(C)c3ccccc3)cc2)n1,1.3,-1
Cc1ccsc1C1Nc2ccc3ccccc3c2C2=C1C(=O)CCC2 (stereo not drawn),0.71,-0.98
Cc1cc(C)c(S(=O)(=O)NCCc2cc3c(C)ccc(C)c3[nH]c2=O)c(C)c1,x,-1.6

# Following part
SMILES,TAR Tat displ,CDC25B CDK2 inh
CCCS(=O)(=O)C/C(N)=N/OC(=O)Nc1ccc(Cl)cc1,x,-1.4
Cn1nc(C(=O)Nc2cccc(Cl)c2)c2c1-c1ccccc1S(=O)(=O)C2,1.1,-1.4
CCc1nnc2c(N3CCCc4ccccc43)nc3ccccc3n12,0.1,x
CCOC(=O)c1sc2nc3n(c(=O)c2c1C)CCCC3,-0.34,0.88
Oc1ccccc1-c1ccnc2cc(-c3ccccc3)nn12,1.2,0.85
O=C(CCN1C(=O)c2ccccc2C1=O)N1CCN(c2cccc(Cl)c2)CC1,x,-0.87
Cc1ccc(C(c2c(O)cc(C)n(Cc3ccco3)c2=O)N2CCCCC2)cc1 (stereo not drawn),-0.04,x
Oc1c(Cl)cc(Cl)cc1C=Nc1cccc2cccnc12,x,-0.39
NC(=O)c1oc2ccccc2c1NC(=O)c1ccc(S(=O)(=O)N2CCCC2)cc1,0.3,-5.7
CCCN1CCN(CCCNC(=O)Nc2c[nH]c3ccc(C)cc3c2=O)CC1,-0.86,-1.1
O=C(Nc1c(-c2cccs2)nc2ccccn12)c1ccccc1F,x,0.9
Cc1ccc(-c2nc3c4ccccc4[nH]c(=O)n3n2)cc1,-0.07,-0.8
C[C@@H]1CCC2[C@](C)(CO)[C@@H](O)CC[C@]2(C)[C@@]12CC[C@@](CO)(CCO)O2 (stereo partly drawn),1.3,x
CCOc1ccccc1NS(=O)(=O)c1cc(Br)cnc1N,1.1,-1.4
Cn1c(N2CCN(c3ccc(C(F)(F)F)cn3)CC2)cc(=O)n(C)c1=O,x,-0.54
Cc1c(NC(=O)CN2C(=O)C(C)(C)c3ccccc32)c(=O)n(-c2ccccc2)n1C,-0.05,x
O=C(NCCc1ccccc1)C(Cc1ccccc1)N1C(=O)c2ccccc2C1=O (stereo not drawn),x,-2.1
Cc1cc2cc(CCNC(=O)c3ccc(Br)o3)c(=O)[nH]c2cc1C,x,-1.9
O=c1[nH]c2cc(Cl)c(Cl)cc2n1-c1ccncc1,x,-2
O=c1c2c(nc3nc(-c4ccc(Cl)cc4)[nH]n13)CCC2,2,-0.51
CCOC(=O)CSc1nc2c(cc1C#N)CCCCC2,0.33,0.05
c1ccc(-n2nnnc2-n2ccnc2)cc1,x,-2.4
O=C(c1noc2c1COc1ccccc1-2)N1CCN(C2CCCCC2)CC1,0.91,-0.92
COc1ccc(C(=O)CC2(O)C(=O)N(CC(N)=O)c3ccccc32)c(OC)c1 (stereo not drawn),x,0.16
COc1ccccc1-c1nc2ccccc2c(=O)o1,-1.8,0.16

# The list goes on:
SMILES,TAR Tat displ,CDC25B CDK2 inh
COC(=O)c1cc2ccsc2n1CC(=O)N1CCCc2ccccc21,-2.2,-1.5
COc1ccc(-n2c(=O)c3c(c4cc(OC)ccc4n3C)n(CC(=O)N3CCCC3)c2=O)cc1,0.91,x
O=C(O)c1cccc(N2C(=O)c3cccnc3C2=O)c1,x,-1.1
O=c1c(NCCc2ccc(Cl)cc2)c(-c2ccccc2)c1=O,6*,x
O=C(Nc1ccccc1F)N1CCC(CN2CCOCC2)CC1,1.4,x
Cc1ccc2oc(SCC(=O)Nc3ccc(Cl)cc3)nc2n1,-0.34,x
Cc1scc(CN(C)Cc2ccccc2)c1C,0.58,x
COc1ccc(/C=C/c2nc(C#N)c(NCC3CCCO3)o2)cc1OC (stereo not drawn),2.2,-1.5
Cc1ccc(Cn2nnc3c(C)nn4c(-c5cccnc5)nnc4c32)cc1,0.58,0.5
COC(=O)C1=C(C)NC(=O)C1(c1c(C)[nH]n(-c2ccccc2)c1=O)C(F)(F)F (stereo not drawn),0.87,-0.84
c1ccc2c(c1)OCC(c1nnc3sc(-c4ccc5c(c4)OCCO5)nn13)O2 (stereo not drawn),1.1,-1.7
Cc1ccc(N2C(=O)Nc3ccccc3S2(=O)=O)c(C)c1,1.8,x
COc1ccc(-c2csc3nc(C(C)(C)C)oc(=O)c23)cc1OC,x,-1.6
COC(=O)c1cc(-c2ccc(S(=O)(=O)N3CCCC3)s2)on1,0.74,x
CCCC1CCC(C(=O)Nc2ccc(Br)cn2)CC1 (stereo not drawn),0.54,-0.25
O=C(c1ccco1)N1CCN(C(=O)c2nc(-c3ccc(Cl)cc3)n3c2CCCCC3)CC1,0.21,x
CCN(CC)c1ncc2c(n1)CC(c1ccco1)CC2=O (stereo not drawn),x,-1.6
Cc1ccc(-c2cc(C(=O)N(Cc3ccco3)C3CCS(=O)(=O)C3)no2)cc1F (stereo not drawn),1.7,-1
COc1ccc(NC(=O)CSc2nnc(C)n3c2cc2oc(C)cc23)cc1OC,3.7,x
O=C(O)/C=C\C(=O)Nc1ccccc1SCC(O)Cn1ccc(C(F)(F)F)n1 (stereo not drawn),x,-1.5
CN(C(=O)CCNS(=O)(=O)c1ccc2c(c1)c(=O)n(C)c(=O)n2C)C1CCCCC1,x,-1.5
O=C(C1CCCN(c2ccnc(-c3ccccc3)n2)C1)N1CCC(N2CCCCC2)CC1 (stereo not drawn),1.6,x
Cc1cccc(C)c1NC(=O)CSC(=O)c1sc2ccccc2c1Cl,x,-0.17
COc1ccc(CN(CCC2CCOC(C)(C)C2)C(C)=O)cc1 (stereo not drawn),x,-1.6
COc1cccc(-c2nc(-c3ccccn3)no2)c1,-0.38,0.87

# Quoted at random: 6 compounds from above.
SMILES,TAR Tat displ,CDC25B CDK2 inh
COc1ccc(-c2csc3nc(C(C)(C)C)oc(=O)c23)cc1OC,x,-1.6
CN(C(=O)CCNS(=O)(=O)c1ccc2c(c1)c(=O)n(C)c(=O)n2C)C1CCCCC1,x,-1.5
Cc1ccc(-c2cc(C(=O)N(Cc3ccco3)C3CCS(=O)(=O)C3)no2)cc1F (stereo not drawn),1.7,-1
Cc1ccc2oc(SCC(=O)Nc3ccc(Cl)cc3)nc2n1,-0.34,x
O=C(c1ccco1)N1CCN(C(=O)c2nc(-c3ccc(Cl)cc3)n3c2CCCCC3)CC1,0.21,x
COC(=O)c1cc(-c2ccc(S(=O)(=O)N3CCCC3)s2)on1,0.74,x

# New compounds follow
SMILES,TAR Tat displ,CDC25B CDK2 inh
CN(C)CCCN1C(=O)C(=O)/C(=C(\O)c2ccccc2)C12C(=O)N(C)c1ccccc12 (stereo not drawn),0.28,0.07
CCOc1ccc(Oc2nc(NCC(C)C)nc(N3CCOCC3)n2)nn1,-0.66,-0.07
COc1ccc(NS(=O)(=O)c2ccc(-n3cnnn3)cc2)cc1OC,-0.21,-2.1
COCC(C)OC(=O)c1c(-c2ccccc2)c(-c2ccccc2)n[nH]c1=O (stereo not drawn),-0.03,-1.4
CCCN(CCC)C(=O)C1Sc2nnc(-c3ccccc3)n2NC1c1ccccc1 (stereo not drawn),0.5,-2
Cc1ccc(N(C)S(=O)(=O)c2ccc3c(c2)CC(C)N3C(=O)C2CCC2)cc1 (stereo not drawn),-0.5,x
COc1ccc2nc(NC(=O)C3CCCN3S(=O)(=O)c3ccc(C)cc3)sc2c1 (stereo not drawn),x,-1.3
Cc1nc(N2CCOCC2)cc(N2CCN(C(=O)C(C)C)CC2)n1,-0.55,-1
Cc1cc(C)c(C#N)c(S(=O)Cc2ccc(Cl)cc2)n1 (stereo not drawn),2,-2.2
N#Cc1c(N)nc2c(c1-c1cccnc1)CCCCC2,0.91,-0.8
COc1ccc(OCC(=O)n2c(=O)oc3cc(Cl)ccc32)cc1,-6.7,x
CCCCC(=O)Nc1nc2nc(C)cc(=O)n2[nH]1,-0.56,0.04
COCC(C)NC(=O)Cn1cnc2c1c(=O)n(C)c(=O)n2C (stereo not drawn),x,-1.2
Nc1nc(-c2ccc(Cl)cc2)nn1S(=O)(=O)c1ccc(Cl)cc1,x,0.28
N#CC1=C2N=C(N)c3ccccc3N2C2=C(C(=O)CCC2)C1c1ccc(Cl)cc1 (stereo not drawn),1.5,-1.3
CCCCN(CCNc1ncnc2onc(-c3ccc(C)cc3)c12)Cc1ccco1,0.27,x
CN(C)/C=C/C=c1/c(=O)c2cccc3cccc1c32,x,0.27
Cc1cc(SC(C)C(=O)Nc2ccc(F)cc2)nc(C)n1 (stereo not drawn),1.3,-2.2
COc1cc(NC2c3ccccc3C(=O)N2c2ccc(Cl)cc2)cc(OC)c1 (stereo not drawn),1.5,-0.9
CCOC(=O)/C(C#N)=C/c1ccccc1Sc1ccc(Cl)cc1,x,-1.7
Cc1ccc2nc(CN3CCN(S(C)(=O)=O)CC3)oc2c1,1.5,x
CCC(CC)C(=O)Nc1ccc(OCc2cc(=O)n3cc(Cl)ccc3n2)cc1,0.64,x
O=S(=O)(Nc1ccc(-c2cn3ccccc3n2)cc1)c1ccc(F)cc1,x,-1.3
Cc1nc(C)c(-c2csc(Nc3ccc(N(C)C)cc3)n2)s1,0.7,-2
O=C(Nc1cnn(Cc2ccc(F)cc2)c1)c1nc2ncccn2n1,0.17,-2

# Looked up above:
# CDC25B CDK2 inh, `Cc1cc(=O)n2nc(-c3cccs3)nc2n1CC(=O)NC(C)C` : 0.13
# CDC25B CDK2 inh, `COc1cc(NC2c3ccccc3C(=O)N2c2ccc(Cl)cc2)cc(OC)c1` (stereo not drawn) : -0.9
# TAR Tat displ, `COCC(C)OC(=O)c1c(-c2ccccc2)c(-c2ccccc2)n[nH]c1=O` (stereo not drawn) : -0.03

# Going on with the list:
SMILES,TAR Tat displ,CDC25B CDK2 inh
CC(C)c1ccc(CNc2nc3ccccc3n2CCN2CCOCC2)cc1,-0.69,0.9
CC(=O)OC1CCC23CC1(C)CCC2C(C)(C)CC3OC(C)=O (stereo not drawn),0.54,x
CCOC(=O)c1cc(C)nc(N2CCC(C(N)=O)CC2)c1C#N,x,-1.8
Cc1nc(Cl)c(C#N)c2c1CCCC2,x,-1.3
CC(=O)Nc1cc(C)c(O)c(-c2nc3cc(C(C)C)ccc3o2)c1,-0.34,2.7
O=C1N(Cc2cc(=O)n3ccccc3n2)c2ccccc2S(=O)(=O)N1c1ccc(Cl)cc1,-8.2,x
O=C(CN1C(=O)CCSc2ccccc21)N1CCc2ccccc2C1,1.1,-1.7
Cc1cccc(-c2c3c(=O)n(C)c(=O)n(C)c3c3c(C)cc(C)nn23)c1,-0.77,-0.27
Cc1cc(C)cc(OCC(O)CN2C(=O)NC(C)(C)C2=O)c1 (stereo not drawn),0.42,-0.77
O=C(NC(=S)Nc1ccccc1)c1ccccc1,x,0.96
COc1ccc(Cl)cc1NC(=S)N1CCCN(Cc2ccc(F)cc2)CC1,x,0.87
Cc1sc2c(c1C)CSC(C(=O)Nc1ccc(Br)cc1F)=C2,-3.8,x
Cc1cc(NC(=O)CSc2ncnc3ccccc23)no1,x,-1.4
COc1ccc(-c2noc(CSc3nnc(-c4ccncc4)n3-c3ccc(C)cc3)n2)c(OC)c1,1.8,-1.6
C=CCn1c(COc2cccc3cccnc23)nnc1SCC(=O)O,2.1,-1.6
COc1cc(NS(=O)(=O)c2cc(-c3onc(C)c3C)ccc2OC)cc(OC)c1,0.87,x

# Reprinted from above (2 entries):
SMILES,TAR Tat displ,CDC25B CDK2 inh
C=CCn1c(COc2cccc3cccnc23)nnc1SCC(=O)O,2.1,-1.6
COc1cc(NS(=O)(=O)c2cc(-c3onc(C)c3C)ccc2OC)cc(OC)c1,0.87,x
